Bioassay records: PubChem, Broad Institute
HIV Env fusion – inhibitors of HIV Env-mediated cell fusion; HeLa-JRFL Env/CEM21 cell fusion, luciferase; inhibition, % at 12.3 µM; 360,000 compounds, 1.1% hits;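 active = mean replicate inhibition score of at least 50 and every replicate individually at or above 50; inconclusive = only one of the two criteria met; inactive = mean below 50 and not all replicates reaching 50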;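 note: 0% = plate neutral controls and 100% = maraviroc near 300 nM; one replicate is shown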
UUG fidelity – alters start codon recognition fidelity in yeast | S. cerevisiae UUG-firefly luciferase reporter, luminescence/redox ratio | activity score, % at 18.7 µM | 350,000 compounds, 0.13% hits | AID 602363;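 active = replicate mean at a twofold rise or more, about +100% in these data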;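 note: firefly luciferase made from a UUG start codon reports start codon fidelity; reporter light over untreated wells divided by growth signal over untreated wells; some hits fall short of that in this replicate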
* marks the source's active call; other numbers are inactive results; u = inconclusive; [ ] = another dose, or the depositor's remark. A portion of the library. The share of hits here may be higher or lower than overall.

SMILES | HIV Env fusion | UUG fidelity
O=C(N[C@@H]1CC[C@H](CCNS(=O)(=O)c2ccccc2)O[C@H]1CO)c1cccnc1 | 3[16.7 µM] | -13
C[C@H]1CN([C@@H](C)CO)C(=O)c2cc(-c3ccncc3)cnc2O[C@H]1CN(C)Cc1ccc(F)cc1 | -21[16.7 µM] | 5
COc1ccc(S(=O)(=O)Nc2ccc3c(c2)C(=O)N([C@@H](C)CO)C[C@H](C)[C@H](CN(C)Cc2ccc(C(=O)Nc4ccccc4N)cc2)O3)cc1 | -56[16.7 µM] | 0
C[C@H](CO)N1C[C@H](C)[C@H](CN(C)Cc2ccncc2)Oc2ncccc2C1=O | -10[16.7 µM] | -11
COc1ccc(CN(C)C[C@H]2OCCCC[C@@H](C)Oc3ccc(NS(C)(=O)=O)cc3C(=O)N([C@@H](C)CO)C[C@@H]2C)cc1 | -12[16.7 µM] | 14
Cc1noc(C)c1S(=O)(=O)Nc1ccc2c(c1)C(=O)N([C@@H](C)CO)C[C@@H](C)[C@H](CN(C)Cc1ccccc1)OCCCC[C@@H](C)O2 | 3[16.7 µM] | 13
C[C@H](CO)N1C[C@H](C)[C@H](CN(C)S(C)(=O)=O)OCCCC[C@H](C)Oc2ccc(NS(C)(=O)=O)cc2C1=O | -2[16.7 µM] | -21
C[C@H](CO)N1C[C@H](C)[C@@H](CN(C)C(=O)Cc2ccccn2)Oc2ncc(C#CC3CCCCC3)cc2C1=O | 3[16.7 µM] | 10
COC(=O)C[C@H]1C[C@@H]2c3cc(NC(=O)Nc4ccc(OC)cc4)ccc3O[C@@H]2[C@@H](CO)O1 | 7[16.7 µM] | -5
C[C@@H]1CN([C@@H](C)CO)C(=O)c2cccc(NC(=O)Nc3ccc(C(F)(F)F)cc3)c2O[C@H]1CN(C)C(=O)Nc1cccc2ccccc12 | 15[16.7 µM] | -6
C[C@H]1CN([C@@H](C)CO)C(=O)Cc2cc(NC(=O)c3ccncc3)ccc2O[C@@H]1CN(C)Cc1ccccc1 | 2[16.7 µM] | -9
COc1ccccc1C#Cc1ccc2c(c1)O[C@H](CN(C)Cc1ccccc1)[C@@H](C)CN([C@@H](C)CO)S2(=O)=O | 23[16.7 µM] | -1
C[C@H]1CN([C@@H](C)CO)S(=O)(=O)c2ccc(C#Cc3ccccc3)cc2O[C@@H]1CN(C)S(=O)(=O)c1ccccc1F | -52[16.7 µM] | 0
C[C@@H]1CCCCO[C@H](CN(C)Cc2ccc(C(=O)O)cc2)[C@@H](C)CN([C@@H](C)CO)C(=O)c2cc(NC(=O)Nc3ccc4c(c3)OCO4)ccc2O1 | -2[16.7 µM] | 12
C[C@H]1CN([C@@H](C)CO)C(=O)c2cc(NS(=O)(=O)c3cn(C)cn3)ccc2O[C@@H]1CN(C)CC1CC1 | 3[16.7 µM] | -5
CS(=O)(=O)N1[C@H](C#N)[C@H](c2ccc(C#CC3CCCCC3)cc2)[C@H]1CO | -10[16.7 µM] | -26
C[C@H]1CN([C@@H](C)CO)C(=O)c2cc(NC(=O)CCC(F)(F)F)ccc2O[C@H]1CN(C)Cc1ccncc1 | -17[16.7 µM] | -3
O=C(C[C@@H]1CC[C@H]2[C@@H](COC[C@H](O)CN2Cc2ccc3c(c2)OCO3)O1)N1CCCCC1 | 1[16.7 µM] | -12
COc1ccc(C#Cc2ccc3c(c2)[C@]2(C(=O)N3)[C@H](C(=O)Nc3nc4ccccc4s3)[C@H]3C(=O)O[C@H](c4ccccc4)[C@H](c4ccccc4)N3[C@@H]2c2ccccc2OCCO)cc1 | -1[16.7 µM] | -6
O=C(C[C@@H]1CC[C@H](NS(=O)(=O)c2ccccc2)[C@@H](CO)O1)NCc1ccncn1 | -12[16.7 µM] | -12
O=C(C[C@@H]1C[C@H]2c3cc(NC(=O)C4CCOCC4)ccc3O[C@H]2[C@H](CO)O1)NCc1ccc(Cl)cc1 | 11[16.7 µM] | 21
O=C(N[C@@H]1CC[C@@H](CCn2cc(-c3cccnc3)nn2)O[C@@H]1CO)c1ccccc1F | -1[16.7 µM] | -6
C[C@H](CO)N1C[C@H](C)[C@H](CN(C)C(=O)c2ccncc2)OCCCC[C@H](C)Oc2ccc(NC(=O)CCC(F)(F)F)cc2C1=O | -15[16.7 µM] | -1
CN1C(=O)c2cc(NC(=O)c3cc(F)cc(F)c3)ccc2OC[C@H]2O[C@H](CC(=O)O)CC[C@H]21 | 7[16.7 µM] | -9
C[C@@H]1CN([C@H](C)CO)S(=O)(=O)c2ccc(C#C[C@@H](C)O)cc2O[C@H]1CN(C)C(=O)c1ccncc1 | -16[16.7 µM] | 3
SMILES | HIV Env fusion | UUG fidelity
CC(=O)N[C@@H]1CC[C@H](CCNC(=O)C2CCC2)O[C@@H]1CO | -8[16.7 µM] | -4
COc1ccc(S(=O)(=O)Nc2ccc3c(c2)C(=O)N([C@H](C)CO)C[C@H](C)[C@@H](CN(C)Cc2ccc4c(c2)OCO4)OCCCC[C@H](C)O3)cc1 | -27[16.7 µM] | 24
Cc1noc(C)c1NC(=O)N(C)C[C@H]1OCCCC[C@@H](C)Oc2ccc(NS(=O)(=O)c3cccs3)cc2C(=O)N([C@H](C)CO)C[C@@H]1C | 3[16.7 µM] | -2
COc1ccc(S(=O)(=O)Nc2ccc3c(c2)C(=O)N(C)C[C@H](OC)[C@@H](C)CN[C@@H](C)CO3)cc1 | -7[16.7 µM] | 4
COc1ccc(C#Cc2ccc3c(c2)O[C@H](CN(C)S(=O)(=O)c2ccccc2F)[C@@H](C)CN([C@H](C)CO)S3(=O)=O)cc1 | 21[16.7 µM] | -8
CC(C)NC(=O)N(C)C[C@H]1OCCCC[C@H](C)Oc2ccc(NS(=O)(=O)c3ccc(F)cc3)cc2C(=O)N([C@H](C)CO)C[C@H]1C | -59[16.7 µM] | -6
C[C@H](CO)N1C[C@H](C)[C@@H](CN(C)C(=O)Nc2ccc(C(F)(F)F)cc2)Oc2ccc(NC(=O)Cc3cn(C)c4ccccc34)cc2C1=O | -39[16.7 µM] | -11
C[C@@H]1CN([C@@H](C)CO)S(=O)(=O)c2ccc(C3=CCCCC3)cc2O[C@@H]1CN(C)C(=O)C1CCOCC1 | 12[16.7 µM] | 13
C[C@H]1CN([C@@H](C)CO)C(=O)c2cccc(NC(=O)c3ccncc3)c2O[C@@H]1CN(C)Cc1ccccc1 | 5[16.7 µM] | -7
COc1ccccc1-c1ccc2c(c1)O[C@H](CN(C)S(=O)(=O)c1ccc(C)cc1)[C@@H](C)CN([C@H](C)CO)S2(=O)=O | 38[16.7 µM] | -9
COc1ccc(S(=O)(=O)N(C)C[C@@H]2Oc3cc(C4=CCCC4)ccc3S(=O)(=O)N([C@@H](C)CO)C[C@H]2C)cc1 | 32[16.7 µM] | -4
COc1ccc(S(=O)(=O)Nc2cccc3c2O[C@@H](CN(C)C(=O)Nc2ccc(C(F)(F)F)cc2)[C@H](C)CN([C@@H](C)CO)C3=O)cc1 | u | 9
COc1cccc(S(=O)(=O)N[C@H]2C=C[C@@H](CC(=O)NCc3ccc(Cl)cc3)O[C@H]2CO)c1 | 9[16.7 µM] | -10
C[C@@H]1CN([C@H](C)CO)C(=O)c2cc(C#CCN(C)C)cnc2O[C@H]1CN(C)Cc1ccccc1F | 16[16.7 µM] | -14
C[C@@H]1CN([C@H](C)CO)C(=O)c2cc(NC(=O)c3ccccc3)ccc2O[C@@H](C)CCCCO[C@H]1CN(C)C(=O)Nc1ccc(C(F)(F)F)cc1 | 32[16.7 µM] | -21
Cc1ccccc1-c1cnc2c(c1)C(=O)N([C@@H](C)CO)C[C@@H](C)[C@H](CN(C)C(=O)c1ccccc1)O2 | -11[16.7 µM] | 3
C[C@@H]1CN([C@@H](C)CO)S(=O)(=O)c2ccc(C#CCN(C)C)cc2O[C@H]1CN(C)CC1CCCC1 | 0[16.7 µM] | 11
CN1CCN(C(=O)C[C@@H]2CC[C@@H](NC(=O)Nc3ccccc3F)[C@H](CO)O2)CC1 | 14[16.7 µM] | -4
C[C@H](CO)N1C[C@H](C)[C@@H](CN(C)C(=O)CCCN(C)C)OCCCC[C@H](C)Oc2ccc(NC(=O)CCC(F)(F)F)cc2C1=O | 6[16.7 µM] | 1
CCCNC(=O)C[C@@H]1C[C@H]2c3cc(NC(=O)Cc4ccncc4)ccc3O[C@H]2[C@H](CO)O1 | 98*[16.7 µM] | 7
O=C(N[C@@H]1CC[C@H](CCNC(=O)C2CCCC2)O[C@H]1CO)c1ccccn1 | 19[16.7 µM] | 12
C[C@@H]1CN([C@@H](C)CO)C(=O)Cc2cc(NC(=O)Nc3ccccc3)ccc2O[C@@H]1CN(C)Cc1ccc(C(F)(F)F)cc1 | -4[16.7 µM] | 8
Cc1ccc(S(=O)(=O)Nc2ccc3c(c2)C(=O)N([C@@H](C)CO)C[C@@H](C)[C@@H](CN(C)Cc2ccc(C(=O)Nc4ccccc4N)cc2)O3)cc1 | -4[16.7 µM] | 8
C[C@@H]1CCCCO[C@H](CN(C)Cc2ccc3c(c2)OCO3)[C@H](C)CN([C@H](C)CO)C(=O)c2cc(NC(=O)Nc3ccc(F)cc3)ccc2O1 | -10[16.7 µM] | 17
COCC#Cc1ccc2c(c1)O[C@H](CN(C)C(=O)CN(C)C)[C@H](C)CN([C@@H](C)CO)S2(=O)=O | 5[16.7 µM] | -3
SMILES | HIV Env fusion | UUG fidelity
C[C@@H]1CN([C@@H](C)CO)C(=O)c2cc(NS(=O)(=O)c3cccs3)ccc2O[C@@H](C)CCCCO[C@H]1CN(C)S(=O)(=O)c1ccc(Cl)cc1 | -60[16.7 µM] | -6
CC(C)NC(=O)N[C@H]1CC[C@H](CCNC(=O)C2CCC2)O[C@@H]1CO | 9[16.7 µM] | -7
C[C@@H]1CN([C@@H](C)CO)C(=O)c2cccc(NS(C)(=O)=O)c2O[C@@H]1CN(C)CC1CCCCC1 | -13[16.7 µM] | -10
C[C@@H]1CN([C@@H](C)CO)C(=O)c2cc(-c3ccc(F)cc3)cnc2O[C@H]1CN(C)Cc1ccc(F)cc1 | 19[16.7 µM] | -15
C[C@H](CO)N1C[C@H](C)[C@H](CN(C)C(=O)c2ccccc2F)Oc2ncc(C#C[C@@H](C)O)cc2C1=O | 3[16.7 µM] | 8
C[C@@H]1CN([C@@H](C)CO)C(=O)Cc2cc(NC(=O)CCC(F)(F)F)ccc2O[C@@H]1CN(C)S(=O)(=O)c1ccc(F)cc1 | 15[16.7 µM] | 7
C[C@H]1CN([C@@H](C)CO)C(=O)c2cc(C#CCN(C)C)cnc2O[C@H]1CN(C)C(=O)NC1CCCCC1 | -7[16.7 µM] | 3
O=C(N[C@H]1C=C[C@@H](CC(=O)N2CCOCC2)O[C@@H]1CO)c1ccccn1 | 19[16.7 µM] | -15
C[C@@H]1CN([C@@H](C)CO)C(=O)c2cccc(NC(=O)Nc3ccc(F)cc3)c2O[C@H]1CN(C)C(=O)Nc1cccc2ccccc12 | 3[16.7 µM] | 3
C[C@H](CO)N1C[C@H](C)[C@H](CN(C)C(=O)c2ccncc2)Oc2ncc(C3=CCCCC3)cc2C1=O | -8[16.7 µM] | -11
O=C(C[C@@H]1C=C[C@H](NS(=O)(=O)c2ccc(F)cc2)[C@H](CO)O1)NC1CCC1 | 3[16.7 µM] | -2
CC(C)NC(=O)Nc1ccc2c(c1)C(=O)N([C@@H](C)CO)C[C@H](C)[C@@H](CN(C)Cc1ccccc1)O2 | -15[16.7 µM] | -10
O=C(C[C@H]1C[C@@H]2c3cc(NS(=O)(=O)c4ccc(F)cc4)ccc3O[C@@H]2[C@H](CO)O1)NCc1ccccc1F | 51[16.7 µM] | 8
COc1ccc([Si](C)(C)[C@H]2[C@H](CCn3cc([C@H](O)c4ccccc4)nn3)O[C@@]3(C(=O)N(Cc4cccc(N5CCOC5=O)c4)c4ccccc43)[C@@H]2C)cc1 | 2[16.7 µM] | -1

Another view of part of the listing above:
C[C@@H]1CN([C@@H](C)CO)C(=O)c2cccc(NC(=O)Nc3ccc(F)cc3)c2O[C@H]1CN(C)C(=O)Nc1cccc2ccccc12
  HIV Env fusion: 3[16.7 µM]; UUG fidelity: 3
COc1ccc([Si](C)(C)[C@H]2[C@H](CCn3cc([C@H](O)c4ccccc4)nn3)O[C@@]3(C(=O)N(Cc4cccc(N5CCOC5=O)c4)c4ccccc43)[C@@H]2C)cc1
  HIV Env fusion: 2[16.7 µM]; UUG fidelity: -1
C[C@H](CO)N1C[C@H](C)[C@H](CN(C)C(=O)c2ccncc2)Oc2ncc(C3=CCCCC3)cc2C1=O
  HIV Env fusion: -8[16.7 µM]; UUG fidelity: -11
C[C@H](CO)N1C[C@H](C)[C@H](CN(C)C(=O)c2ccccc2F)Oc2ncc(C#C[C@@H](C)O)cc2C1=O
  HIV Env fusion: 3[16.7 µM]; UUG fidelity: 8

Taken from above.
Under HIV Env fusion, `COc1ccc([Si](C)(C)[C@H]2[C@H](CCn3cc([C@H](O)c4ccccc4)nn3)O[C@@]3(C(=O)N(Cc4cccc(N5CCOC5=O)c4)c4ccccc43)[C@@H]2C)cc1` has the entry 2[16.7 µM]
Under UUG fidelity, `C[C@@H]1CN([C@@H](C)CO)C(=O)c2cc(-c3ccc(F)cc3)cnc2O[C@H]1CN(C)Cc1ccc(F)cc1` has the entry -15
Under HIV Env fusion, `C[C@@H]1CN([C@@H](C)CO)C(=O)c2cccc(NC(=O)Nc3ccc(F)cc3)c2O[C@H]1CN(C)C(=O)Nc1cccc2ccccc12` has the entry 3[16.7 µM]
